From PubChem BioAssay
ClpP mod = qHTS Assay for Activators of ClpP; ATP-dependent Clp protease proteolytic subunit (Bacillus subtilis (strain 168)), P80244; purified B. subtilis ClpP, FRET peptide cleavage, 20 min; Potency, µM (series often up to 57.5 µM), for inactives: at the highest dose activity change, negative = active; 1.9% of 340,000 active; active = well fitted falling curve with a large enough effect; inconclusive = small, poorly fitted or top-dose-only effect; inactive = no such curve, though single readings can be large or run the other way; further: potency means the concentration at half of the fitted maximal effect; the source files actives as falling curves though it sought activators and does not explain the sign; nearly all actives have a fitted effect of over 65% in size; many hits overshoot -100%
Target sequence (P80244 whole entry, looked up): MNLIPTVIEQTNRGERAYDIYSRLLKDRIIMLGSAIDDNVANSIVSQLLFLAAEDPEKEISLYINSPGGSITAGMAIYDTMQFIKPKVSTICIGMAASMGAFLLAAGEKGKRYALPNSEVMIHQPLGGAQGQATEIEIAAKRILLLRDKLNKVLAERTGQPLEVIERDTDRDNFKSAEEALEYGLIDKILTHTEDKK
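FRET quenching reversal measured ClpP activation: 10 microg/mL B. subtilis ClpP at pH 8 with the FRET-FV decapeptide, read at 430 nm after 320 nm excitation. The 20-min minus 0-min signal was scaled between DMSO/no-enzyme wells and ADEP (5.8 microM final).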
gsp antagonist = gsp mutant antagonism; gsp-mutant cells, cAMP HTRF, 30 min; control for the full effect not named in the record; Potency, µM (top dose mostly 76.9 µM), without a hit: at the top dose activity change, negative = inhibition, hits mostly inhibitors; 0.4% of 340,000 active; active = falling curve of any shape with a large fitted effect; inconclusive = falling curve, mostly with a smaller effect; inactive = flat or rising curve; cell line not stated here;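 further: intracellular cAMP measured with PDE inhibitor Ro 20-1724 present during compound exposure; potency means the concentration at half of the fitted maximal effect; on the % scale 0 is the no-effect control and ±100 the full control effect; nearly all actives have a fitted effect of over 65% in size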
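Cells in G418 medium, seeded 16-24 h, 37C; buffer exchange to DPBS + 1 mM CaCl2, 0.5 mM MgCl2, 0.05% BSA; cpds in DMSO + […] (300 uM stock), 30 min 37C; HTRF cAMP detection.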
TRPML1 inh = blocks the human TRPML1 channel; 0.02% of 390,000 active; AID 624415; activity change, negative = inhibition, % (test concentration not listed); TRPML1-inducible cells, Ca2+ dye fluorescence, FDSS; hits give low values; inhibition of EC80 agonist-evoked calcium signal; Q9GZU1; in the data active means activity change below about -50%; inconclusive means about -30% to -50%; inactive means above about -30%;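 further: stimulus is agonist 54-4 at its EC80 concentration; on the % scale 0 is the no-effect control and ±100 the full control effect; compound concentration not given in the record; the text of the record puts the active cut at -80%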
Target sequence (Q9GZU1 whole entry, looked up): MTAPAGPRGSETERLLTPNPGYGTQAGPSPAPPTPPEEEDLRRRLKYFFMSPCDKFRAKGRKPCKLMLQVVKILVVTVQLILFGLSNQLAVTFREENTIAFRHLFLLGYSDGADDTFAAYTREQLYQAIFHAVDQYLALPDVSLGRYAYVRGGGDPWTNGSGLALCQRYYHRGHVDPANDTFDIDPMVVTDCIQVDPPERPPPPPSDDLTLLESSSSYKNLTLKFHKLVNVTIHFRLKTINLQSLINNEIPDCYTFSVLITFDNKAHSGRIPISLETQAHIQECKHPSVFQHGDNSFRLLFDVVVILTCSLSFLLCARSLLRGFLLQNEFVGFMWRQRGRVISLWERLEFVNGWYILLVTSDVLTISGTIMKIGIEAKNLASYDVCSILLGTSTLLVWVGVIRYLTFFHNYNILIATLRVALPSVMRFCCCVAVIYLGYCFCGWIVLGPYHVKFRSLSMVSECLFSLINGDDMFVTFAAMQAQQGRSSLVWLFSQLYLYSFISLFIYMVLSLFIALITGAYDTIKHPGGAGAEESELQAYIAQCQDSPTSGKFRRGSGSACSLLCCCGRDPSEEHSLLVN
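Tet-induced TRPML1-DL cells loaded with Ca8 no-wash calcium dye were read kinetically on FDSS. Compound addition was followed by EC80 agonist 54-4 (4 uM final); inhibition was read over 110 s.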
Menin-MLL FL inh = inhibitors of human menin-MLL interaction, wild-type MLL peptide. Fluorescence polarization, fluorescein-MLL peptide displacement from menin. FP activity change, % at 61.4 µM. 290,000 tested, under 10 active. AID 1766; inconclusive = falling polarisation curve, or a change in total fluorescence; inactive = total fluorescence flat and polarisation flat or rising; no compound was filed as active; the % refers to the polarisation; negative = inhibition;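 further: % of control where 0% means no effect; inhibitors lower the polarisation; unlabelled MLL peptide was the positive control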
gsp agonist = activates gsp, the McCune-Albright syndrome mutation; Potency, µM (doses to about 76.9 µM), for the others: at the highest dose activation (cAMP increase), hits mostly activators; 0.13% of 340,000 active; gsp mutant cells, cAMP HTRF, 30 min; control for the full effect not named in the record; AID 624287; active = well fitted activation curve with a large enough effect; inconclusive = small, poorly fitted or top-dose-only effect, or another doubt; inactive = no such curve, though single readings can be large or run the other way; cell line not stated here;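 further: phosphodiesterase inhibitor Ro 20-1724 added with compounds to block cAMP breakdown; potency means the concentration at half of the fitted maximal effect; nearly all actives have a fitted effect of over 60% in size; about a fifth of the inactives were tested at one dose only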
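Cells stably selected in G418 were plated at 2000/well, grown 16-24 hr, then given compounds in DMSO with the PDE inhibitor […] (300 uM solution added) for 30 min at 37C; cAMP was read by HTRF.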
TRPML1 agonist = agonists of human TRPML1 channel. Q9GZU1. activation, % (no concentration beside the values). 0.12% of 410,000 active. AID 624414. TRPML1-expressing cells, Ca2+ dye fluorescence, FDSS; host cell line not named in the record; reference of the full effect not given here; in the data active = activation above about 50%; inconclusive = about 30% to 50%; inactive = below about 30%; further: 0% is about no effect; the text of the record puts the active cut at 80%
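Agonist activity was taken from a 110 s kinetic Ca2+ dye read on the FDSS after pinning compounds onto TRPML1-DL cells. The cells were seeded at 1,500/well with Tet inducer, incubated about 16 h, then dye-loaded at room temperature.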
* = called active by the depositor; ? = inconclusive; . = not tested or not shown; & = joins results of further samples; [ ] = dose if it differs, or a comment.

SMILES	ClpP mod	gsp antagonist	TRPML1 inh	Menin-MLL FL inh	gsp agonist	TRPML1 agonist
O=C(NC1CCS(=O)(=O)C1)c1cccc(S(=O)(=O)N2CCCCCC2)c1 (configuration not stated)	0.9%	5%	25	-1.0	-37%[inhibitor]	-0.2
COc1ccccc1C(=O)N/C(=C/c1ccc(Br)cc1)C(=O)N1CCCC1	.	3%	28	3.0	5%[15.4 µM]	-0.8
COc1ccc(CNC(=O)CN2C(=O)NC(Cc3ccccc3)(c3ccccc3)C2=O)cc1OC (configuration not stated)	0.8%	-5%	9	.	-11%	-0.8
O=C(CN1C(=O)/C(=C/c2ccccc2)SC1=S)NNC(=O)c1ccccc1O	4.7%	-11%	7	5.1	25%	-0.8
CC(C)CCNC(=O)C12CN(Cc3ccccc3)CC1C(c1cccc([N+](=O)[O-])c1)=NO2 (configuration not stated)	2.1%	-5%	0	4.0	.	-1.0
Cc1c(O)nc(SCC(=O)Nc2nccs2)n(-c2ccccc2F)c1=O	-1.1%	5%	0	.	-40%[inhibitor]	0.3
O=C(Nc1cccc(Cl)c1N1CCOCC1)c1cccs1	-1.0%	0%	-8	.	-3%	-0.2
Cc1cccc(C)c1NC(=O)CSc1nc(-c2ccco2)cc(C(F)(F)F)n1	-5.1%	5%	-4	2.2	-47%[inhibitor]	-0.3
CCc1ccc(NC(=O)C(CC)c2ccccc2)cc1 (configuration not stated)	1.3%	-1%	22	1.0	-11%	?
COc1ccccc1N1CCN(C(=O)C2CCN(S(=O)(=O)c3ccc4c(c3)CC(C)N4C(=O)C3CC3)CC2)CC1 (configuration not stated)	-2.4%	?	1	0.7	14%	0.9
O=C(CSc1nc(-c2ccccc2)cc(C(F)(F)F)n1)c1cccc([N+](=O)[O-])c1	?	10%	11	2.4	-51%[inhibitor]	0.0
C=CCn1c(=S)[nH]c2sc3c(c2c1=O)CCC3	-1.6%	7%	-10	1.3	26%	1.2
CC(=O)Nc1ccc(NC(=O)CSc2nnc(CC(C)O)n2-c2ccccc2)cc1 (configuration not stated)	-1.9%	6%	8	-4.6	-43%[inhibitor]	0.0
CCOC(=O)c1ccc(NCc2nc3ccccc3n2C)cc1	-13%	1%	-1	-0.2	2%	3.0
CCOC(=O)c1cc(C#N)c(SCc2ccc(C#N)cc2)nc1C	-8.6%	11%	57	-0.9	?	2.5
COc1ccc(Br)cc1C(=O)Nc1nnn(C)n1	-0.3%	0%	4	-2.6	10%	-0.8
CCn1c(NCCc2ccc(OC)c(OC)c2)nc2c1c(=O)n(C)c(=O)n2C	-2.4%	4%	-9	3.1	-60%[inhibitor]	0.9
CCOc1ccc(C(=O)NCc2ccco2)cc1OCC	-2.9%	8%	4	-5.6	3%[15.4 µM]	0.2
CCCCCSc1nnc(N)s1	0.0%	-1%	35	-0.2	-2%	1.3
COc1ccc(-n2cnc3scc(-c4ccccc4)c3c2=O)cc1	.	-22%	6	0.7	-9%[15.4 µM]	0.9
CCN1CCN(CCOCCOc2ccccc2)CC1	-1.4%	-4%	.	-6.4	11%	.
CCCCn1c(N)c(N(CCOC)C(=O)c2sc3ccccc3c2Cl)c(=O)[nH]c1=O	-0.2%	-8%	22	.	29%	1.2
CSc1ccc(/C=C(/NC(=O)c2ccco2)C(=O)N2CCCCCC2)cc1	-0.3%	-13%	4	0.1	1%	-0.3
Cc1c(C(=O)NCC2CCCO2)oc2ccc3c(c12)C(=O)CC(C)(C)O3 (configuration not stated)	25µM*	2%	2	1.6	2%	1.7

The list goes on (3 carried over from the part before).
SMILES	ClpP mod	gsp antagonist	TRPML1 inh	Menin-MLL FL inh	gsp agonist	TRPML1 agonist
CCCCn1c(N)c(N(CCOC)C(=O)c2sc3ccccc3c2Cl)c(=O)[nH]c1=O	-0.2%	-8%	22	.	29%	1.2
CSc1ccc(/C=C(/NC(=O)c2ccco2)C(=O)N2CCCCCC2)cc1	-0.3%	-13%	4	0.1	1%	-0.3
Cc1c(C(=O)NCC2CCCO2)oc2ccc3c(c12)C(=O)CC(C)(C)O3 (configuration not stated)	25µM*	2%	2	1.6	2%	1.7
CCc1noc(C)c1C(=O)Nc1nc(-c2ccc(OC)cc2)cs1	.	-5%	16	.	-8%[15.4 µM]	2.6
Cc1cc([N+](=O)[O-])nn1CCCC(=O)Nc1c(C)n(C)n(-c2ccccc2)c1=O	.	2%	-11	-3.0	16%	-0.3
Cc1cc(C)nc(NS(=O)(=O)c2ccc(NC(=O)c3snnc3C)cc2)n1	1.3%	7%	0	.	?	-0.6
COc1ccc(N(C)S(=O)(=O)c2cccc(C(=O)NC3CCCCCC3)c2)cc1	-4.7%	-13%	48	3.7	-18%[15.4 µM]	3.3
Cc1cccc(OCCCn2ccnc2)c1	-1.9%	5%	1	4.2	5%	0.1
C[C@H]1CN([C@@H](C)CO)C(=O)c2cc(NC(=O)Cc3ccccc3)ccc2O[C@H]1CN(C)Cc1ccccc1	-2.6%	-2%	-17	.	.	0.8
CCc1ccc(NC(=O)C(NS(=O)(=O)c2cccc3nsnc23)c2ccccc2)cc1 (configuration not stated)	-1.6%&-1.4%	-6%	24&20	10	6%[15.4 µM]	0.1&1.6
COc1ccc(C(=O)Nn2cnc3scc(-c4cccs4)c3c2=O)c(O)c1	32µM*	?	-3	0.9	-3%	1.8
C=CCN(C(=O)CNS(=O)(=O)c1ccccc1)C(C(=O)NCCOC)c1cccnc1 (configuration not stated)	.	-2%	-3	3.0	2%[15.4 µM]	-0.1
C/C(N)=C(/C#N)C(=O)CSc1nnc(C)n1-c1ccccc1	-0.3%	13%	-4	0.9	-34%[inhibitor]	1.2
N#Cc1c(-n2ccnc2)cccc1-n1ccnc1	0.1%	11%	-11	0.3	1%	-0.6
COc1ccccc1[C@@H]1C(c2cccc(C)c2)=NN(c2ccc(Br)cc2)[C@H]1C(=O)N1CCOC1=O	4.7%	-1%	-2	0.8	.	-0.5
CCN1C(=O)/C(=C/c2ccc(OCc3ccc(C(=O)O)cc3)c(Cl)c2)NC1=S	.	-2%	-4	12	7%	-0.3
CCOc1ccccc1CC1C(=O)Nc2ccc(Br)cc21 (configuration not stated)	?	.	-1	.	.	2.0
CCCN1CCN(CCCNC(=O)c2ccc3c(c2)sc2nc(-c4ccc(OC)cc4)cn23)CC1	-14%	.	18	.	.	-0.1
COc1ccc(-n2nc(C(=O)Nc3ccc(C(C)=O)cc3)nc2-c2ccccc2)cc1	-2.7%	.	14	.	.	0.5
CC(=O)Nc1c(Br)cc2c(c1Br)Cc1cc([N+](=O)[O-])ccc1-2	.	-19%	40	.	?	4.4
Cc1ccccc1N(C(=O)CNC(=O)c1ccco1)C(C(=O)NC1CCCCC1)c1cccnc1 (configuration not stated)	.	4%	2	-3.3	?	-0.6
CC1=C(C)CC(C(=O)NC(C)CCc2ccccc2)C(C(=O)O)C1 (configuration not stated)	.	14%	-13	3.4	-14%	0.3
CCOc1ccc(NC(=O)COc2ccc(S(=O)(=O)NC3CCCCC3)cc2)cc1	0.7%	.	-16	.	.	1.4
NC(=O)c1ccc(NC(=O)COC(=O)c2ccc3c(c2)OCCO3)cc1	.	17%	8	3.5	20%[15.4 µM]	0.1
CSc1ncccc1C(=O)OCC(=O)NC1CCCC1	-4.6%	12%	-21	.	?	-1.1
COc1cc(/C=N\NC(=O)C2C(=O)NCC2c2ccccc2)cc(OC)c1O (configuration not stated)	-7.7%	-5%	3	1.5	-21%	-0.6
Nc1nc(NC(=O)c2cccnc2)nn1-c1ccccc1	0.3%	12%	-4	4.0	2%	-0.7
COc1ccc(-n2c(SCC(=O)NCc3ccco3)nc3c([nH]c4ccccc43)c2=O)cc1	-24%&-29%	0%	2&-5	0.2	-57%[inhibitor]	0.8&-0.1
COC(=O)c1ccc(CNC(=O)CSC2=NCCS2)cc1	.	6%	-1	-0.6	-5%[15.4 µM]	0.0
N#CC1=C2N=C(N)c3ccccc3N2C2=C(C(=O)CCC2)C1c1ccccc1F (configuration not stated)	-1.4%	-6%	6	0.4	-3%	1.3
CCCC(=O)Nc1ccc(C(N)=O)cc1	.	?	21	5.2	-8%[15.4 µM]	0.0
CCOC(=O)C(Cc1ccc(O)cc1)NC(=O)CNC(=O)C(CC(C)C)NC(=O)OC(C)(C)C (configuration not stated)	3.7%	8%	16	2.5	-18%	0.7
CCOC(=O)c1csc(NC(=O)c2cc(-c3ccccn3)nc3ccccc23)n1	1.5%	-9%	21	.	2%	1.6
CCCCN(CCCC)C(=O)/C=C/c1cccc([N+](=O)[O-])c1	-0.6%	-12%	30	-0.4	-6%	1.3
Cc1ccc2c(CC(=O)Nc3sccc3C(N)=O)coc2c1	-0.9%	1%	-3	6.0	-39%[inhibitor]	0.9
CC(C)C[C@@H](CN1C(=O)C(=O)NC[C@@H]1CC(C)C)NC(=O)Cc1ccccc1	2.5%	8%	-2	.	-11%	-0.2
COc1ccc(CNC(=O)c2cc3oc4ccccc4c3n2C)cc1OC	25µM*	.	2	.	.	1.4
CCCOc1ccc(C(=O)N(Cc2ccccc2Cl)C2CCS(=O)(=O)C2)cc1 (configuration not stated)	0.0%	.	40	.	.	-0.5
Cc1ccc(S(=O)(=O)N(CC(=O)NCc2ccc(F)cc2)C(=O)N2CCN(C)CC2)cc1	-1.1%	6%	-12	.	-9%	0.1
Cc1nc(Cl)cc(N/N=C/c2ccc(O)cc2O)n1	.	14%	14	0.4	-23%	-0.4
CC(C)(C)c1ccc(C(=O)NCC(=O)N2CCCCCC2)cc1	.	10%	23	-2.6	11%[15.4 µM]	-0.3
CCOC(=O)C1(Cc2cccc(OC)c2)CCN(Cc2ccccc2)CC1	.	1%	18	3.5	0%[15.4 µM]	-0.4
N#Cc1c(N)n(CCNC(=O)c2ccccc2)c2nc3ccccc3nc12	4.0%	-1%	6	4.3	2%	0.2
O=C(CCl)NC(Cc1ccccc1)c1ccccc1 (configuration not stated)	.	.	1	0.8	-3%[15.4 µM]	-0.7

Complete entries, quoted from the list. Order of screens: ClpP mod, gsp antagonist, TRPML1 inh, Menin-MLL FL inh, gsp agonist, TRPML1 agonist
`O=C(CCl)NC(Cc1ccccc1)c1ccccc1` (configuration not stated) as listed: ., ., 1, 0.8, -3%[15.4 µM], -0.7
`N#Cc1c(N)n(CCNC(=O)c2ccccc2)c2nc3ccccc3nc12` as listed: 4.0%, -1%, 6, 4.3, 2%, 0.2
`Cc1nc(Cl)cc(N/N=C/c2ccc(O)cc2O)n1` as listed: ., 14%, 14, 0.4, -23%, -0.4
`CCOC(=O)C1(Cc2cccc(OC)c2)CCN(Cc2ccccc2)CC1` as listed: ., 1%, 18, 3.5, 0%[15.4 µM], -0.4

Outcome played no part in choosing rows. Share with any hit: about 2.1%.
